# KCNQ2 pot – potentiators of rat KCNQ2 potassium channel | O88943 | CHO-K1 KCNQ2, FluxOR thallium flux fluorescence; stronger effect = higher value | B-score at 10 µM | 310,000 tested, 0.54% active | AID 2239;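 active = fluorescence ratio B-score at least 3 SD of library B-scores, with initial fluorescence B-score within 3 SD, cut at about 5.3 in these data; same plate scores as AID 2156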;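 note: B-score of peak minus minimum over baseline fluorescence ratio after K+ and Tl+ stimulus; positive B-score means potentiation of KCNQ2 with more thallium influx and brighter signal; only the inactives scoring about 0 or higher are listed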
# Target sequence (O88943 whole entry, looked up): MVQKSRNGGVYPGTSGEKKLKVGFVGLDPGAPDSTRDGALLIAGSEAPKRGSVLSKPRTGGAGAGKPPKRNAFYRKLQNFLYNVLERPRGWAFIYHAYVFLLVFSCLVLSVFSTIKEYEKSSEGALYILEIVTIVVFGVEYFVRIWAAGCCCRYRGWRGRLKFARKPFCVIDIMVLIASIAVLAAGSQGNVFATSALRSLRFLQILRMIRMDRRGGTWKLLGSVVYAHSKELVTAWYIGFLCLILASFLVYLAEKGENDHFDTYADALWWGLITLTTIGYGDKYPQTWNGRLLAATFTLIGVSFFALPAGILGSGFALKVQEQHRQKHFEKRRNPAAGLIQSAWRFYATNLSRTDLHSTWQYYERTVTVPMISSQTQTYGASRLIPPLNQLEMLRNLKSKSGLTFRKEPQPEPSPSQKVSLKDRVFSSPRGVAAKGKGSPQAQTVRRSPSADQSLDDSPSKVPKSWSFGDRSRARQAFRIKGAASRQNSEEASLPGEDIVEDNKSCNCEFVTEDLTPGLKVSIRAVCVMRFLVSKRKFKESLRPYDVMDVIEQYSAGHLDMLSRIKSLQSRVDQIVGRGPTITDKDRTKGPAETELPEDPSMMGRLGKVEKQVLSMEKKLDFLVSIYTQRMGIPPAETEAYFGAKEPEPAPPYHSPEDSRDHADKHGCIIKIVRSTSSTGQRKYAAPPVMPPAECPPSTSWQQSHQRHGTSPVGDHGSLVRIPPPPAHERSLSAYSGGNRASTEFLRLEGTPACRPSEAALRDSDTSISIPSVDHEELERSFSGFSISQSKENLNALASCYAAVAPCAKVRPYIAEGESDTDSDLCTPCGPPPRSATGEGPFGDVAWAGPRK
# KCNQ2 pot baseline – also measured in KCNQ2 pot; calls as there; B-score; compound at 10 µM; measured here: initial fluorescence intensity artifact check;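 brightness before thallium and not channel activity; 0 = typical well and far values either way flag optical interference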
# Active calls of the source: *.
item	Compound	KCNQ2 pot	KCNQ2 pot baseline
1	Cc1ccc(/C=N/NC(=O)CC2N=C(Cc3ccccc3)NNC2=O)cc1 (centres undefined)	1.3	0.68
2	Cn1c(=O)c2c(nc(SCC(=O)c3ccc(F)cc3)n2C)n(C)c1=O	0.03	1.3
3	CC(=O)N1CCOCCOCCOCC1	0.36	0.58
4	COc1cc(/C=C(/C#N)c2ccc(F)cc2)ccc1OCc1ccc(C(=O)O)o1	0.07	-1.7
5	Cc1c(CC(=O)N2CCN(C(=O)C3COc4ccccc4O3)CC2)c(=O)oc2cc(O)ccc12 (centres undefined)	0.04	-1.9
6	O=P(Cc1ccccn1)(c1ccccc1)c1ccccc1	1.7	-0.13
7	CCn1c(O)c(N=NC(=O)CNC(=O)c2ccco2)c2ccccc21	2.6	-1.8
8	CCn1cc(C(=O)Nc2ccc(C)c([N+](=O)[O-])c2)cn1	1.1	0.44
9	O=C(O)C1C(C(=O)O)C1(c1ccccc1)c1ccccc1 (centres undefined)	1.3	-0.03
10	COc1cc(C(C)=O)ccc1OCC(O)CNCC1(N2CCCCC2)CCCCC1 (centres undefined)	1.7	-1.8
11	CCc1cccc(NC(=O)Cc2ccc(OC)c(OC)c2)c1	0.87	-2.1
12	O=C(COc1cccc(Oc2ccccc2)c1)Nc1ncccn1	0.65	0.09
13	Cc1ccc(S(=O)(=O)CCC(=O)OCC(=O)N2CCN(c3ccccc3)CC2)cc1	0.19	-0.05
14	COc1cccc(CNC(=O)CCc2nc3cc(S(=O)(=O)N4CCOCC4)ccc3n2C)c1	1.2	-0.7
15	O=C(NCCc1c[nH]c2ccccc12)c1cnc2sccn2c1=O	1.8	-0.01
16	O=C(COc1ccc(S(=O)(=O)N2CCOCC2)cc1)Nc1ccc2c(c1)OCCO2	1.4	-1.9
17	CC(C)CCNCC(=O)NC(c1ccccc1)c1ccccc1	0.47	0.01
18	CCCCn1c(=O)c(F)cn(Cc2ccc(OC)c([N+](=O)[O-])c2)c1=O	0.04	0.56
19	COc1cc(OC)c2c(c1)OC(c1ccc(OC)c(OC)c1)C(O)C2=O (centres undefined)	0.01	-0.26
20	CC(C)[C@H](NC(=O)c1ccccc1)C(=O)OCC(=O)Nc1ccc2c(c1)OCCO2	0.42	-0.09
21	COC(=O)c1ccccc1Nc1cc(C)nc2nc(C)nn12	0.03	0.54
22	CC1(C)CN(c2ccccc2)N(C(=O)c2ccc(C#N)cc2)C1=O	1.5	0.75
23	Cc1ccc(S(=O)(=O)N2CCCCC2)cc1C(=O)Nc1cccnc1	2.1	-0.02
24	Cc1ccc(OCCNS(=O)(=O)c2ccc(N3CCCC3=O)cc2)cc1	1.2	-2.9
25	Cc1cc(C(=O)NNc2ccc(Cl)cc2)no1	0.6	1.5
26	COc1cccc(NC(=O)C2C3C=CC(C3)C2C(=O)O)c1 (centres undefined)	1.3	-0.08
27	O=S(=O)(c1ccccc1)N1CCN(C/C=C/c2ccccc2)CC1	2.6	1.4
28	COc1ccc(OC)c(N=CC2=C(O)CC(C)(C)CC2=O)c1	0.38	-0.56
29	COc1ccc(-c2nnc(Nc3ccc(OC)c(C(=O)N4CCCCC4)c3)c3ccccc23)cc1	0.03	-0.14
30	COC(=O)Cc1c(O)ccn(CCc2ccccc2)c1=O	2.3	-0.56

# An excerpt from above in order of SMILES length, rising.
item	Compound	KCNQ2 pot	KCNQ2 pot baseline
25	Cc1cc(C(=O)NNc2ccc(Cl)cc2)no1	0.6	1.5
17	CC(C)CCNCC(=O)NC(c1ccccc1)c1ccccc1	0.47	0.01
21	COC(=O)c1ccccc1Nc1cc(C)nc2nc(C)nn12	0.03	0.54
24	Cc1ccc(OCCNS(=O)(=O)c2ccc(N3CCCC3=O)cc2)cc1	1.2	-2.9
19	COc1cc(OC)c2c(c1)OC(c1ccc(OC)c(OC)c1)C(O)C2=O (centres undefined)	0.01	-0.26
16	O=C(COc1ccc(S(=O)(=O)N2CCOCC2)cc1)Nc1ccc2c(c1)OCCO2	1.4	-1.9

# Additional records:
item	Compound	KCNQ2 pot	KCNQ2 pot baseline
31	COc1ccc(Nc2nc(-c3cccnc3)nc3ccccc23)cn1	0.07	3.5
32	Cc1c(CCC(=O)N2CCC[C@H]2C(=O)O)c(=O)oc2cc3oc4c(c3cc12)CCCC4	2.3	-0.22
33	O=C(CCNS(=O)(=O)c1ccccc1)NCCCSc1ccccc1	0.96	-1.6
34	CCCC(=O)Nc1cccc(C(=O)Nc2nccs2)c1	0.78	0.13
35	CCS(=O)(=O)NCC(c1ccco1)N1CCN(c2ccccc2F)CC1 (centres undefined)	2.9	2
36	CCn1c(Cc2ccccc2)nnc1SCC(=O)Nc1nc(C)c(C)s1	2.2	-0.14
37	COc1ccc(-c2csc(NC(=O)COC(=O)C3=COCCO3)n2)cc1	1.4	-0.14
38	Cc1ccc(OCCC(=O)OCC(=O)Nc2ccc(Cl)cn2)cc1	0.01	-1.2
39	O=C(OCc1cc2ccccc2[nH]c1=O)c1ccc([N+](=O)[O-])cc1	0.62	-0.39
40	COc1ccc(OCC(=O)NNC(=O)c2c(-c3ccccc3Cl)noc2C)cc1	0.05	-1.2
41	O=c1c(C(c2ccccc2)c2c(O)nc3n(c2=O)CCCS3)c(O)nc2n1CCCS2	0.59	1.5
42	O=Cc1c[nH]c2ccc(C(=O)c3ccccc3)cc12	2.1	0.06
43	COC(=O)c1ccc(COC(=O)c2cccn2C)o1	0.31	-1.1
44	COc1ccc(S(=O)(=O)N(C)C)cc1NCC(=O)Nc1ccc(F)cc1F	0.27	0.69
45	Cc1ccc(Cl)cc1-n1ncc2c(NNC(=O)c3ccco3)ncnc21	0.47	-2.4
46	Cc1ccc(S(=O)(=O)NC(C)(C)CSc2nnc(Nc3ccccc3)s2)cc1	0.15	-0.45
47	O=C(NC1CCS(=O)(=O)C1)/C(=C\c1ccccc1)NC(=O)c1ccccc1 (centres undefined)	1.1	0.55
48	CCN1C(=O)/C(=C/c2cn(C)nc2C)SC1=S	0.6	-1.6
49	CC(NC(=O)CC(O)(C(F)(F)F)C(F)(F)F)c1ccccc1 (centres undefined)	4	0.59
50	COc1cc(/C=C/C(=O)OCC(=O)NC(=O)NC(C)(C)C)ccc1O	0.93	-0.66
51	Cc1cc(C)c(S(=O)(=O)Nc2cccc(S(=O)(=O)N3CCOCC3)c2)c(C)c1	0.01	1.3
52	CCOC(=O)NC(=O)C(=CNc1ccccc1C)C(=O)NC(=O)OCC	0.39	0.03
53	O=C(O)Cn1ncn(-c2ccc(OC(F)(F)F)cc2)c1=O	0.77	-0.37
54	CC1CCN(S(=O)(=O)c2ccc(NC(=O)C3CC3)cc2)CC1	0.06	0.37
55	CCOC(=O)c1c(NC(=O)CCS(=O)(=O)c2ccccc2)sc2c1CCN(C)C2	0.46	0.01
56	CSc1ccc(CC(=O)N2CCC(n3nccc3NC(=O)C3CC3)CC2)cc1	1.2	-0.01
57	O=C(NCC(NS(=O)(=O)OCC(Cl)(Cl)Cl)c1ccccc1)C(F)(F)F (centres undefined)	0.96	0.32
58	O=C(Nc1cccc(F)c1)/C(=C\c1cccnc1)NC(=O)c1ccco1	0.75	-0.28
59	Cc1nc2c(-c3ccc(F)cc3)cnn2c(N)c1-c1ccccc1	1.2	0.16
60	CCn1cc(C(=O)Nc2ccc(NC(=O)c3ccco3)cc2)c(=O)c2ccc(C)nc21	0.12	0.22
61	COc1ccc(Cl)cc1C(=O)NCc1cn(C)nc1C	0.05	-1.1
62	Cc1ccccc1-n1cnnc1SCC(=O)Nc1cccnc1Cl	2	7.9
63	Cn1cc(-c2ccccc2)cc(C#N)c1=O	1.4	-0.45
64	COc1cccc2cc(C(C)=O)c(=O)oc12	1.4	-0.1
65	CC(/C=N/NC(=O)c1ccccc1F)c1ccccc1 (centres undefined)	0.73	-0.97
66	COC(=O)COc1ccc(/C=N/NC(=O)CN(c2ccccc2OC)S(=O)(=O)c2ccccc2)cc1	0.96	-1.9
67	O=C(Oc1ccc(Cl)c2cccnc12)c1cccc([N+](=O)[O-])c1	0.16	-0.62
68	COC(=O)c1cc(NCc2ccccc2F)ccc1N1CCOCC1	0.63	-0.43
69	CC1CCN(c2ccc(C(=O)Nc3nnc(C4CC4)s3)cc2[N+](=O)[O-])CC1	0.19	1.4
70	COCCCNC(=O)CCn1c(=O)c2ccccc2n(CC(=O)Nc2cc(Cl)ccc2C)c1=O	0.83	0.86
71	CCOc1ccc(/C=C/c2c([N+](=O)[O-])c(=O)n(C)c(=O)n2C)cc1	1.4	-0.91
72	CCn1nc(NC(=O)C2CCCO2)c2cc3cccc(C)c3nc21 (centres undefined)	5	0.01
73	Cc1ccc(SCc2[nH]nc3c2C(c2ccc(C)o2)C(C#N)=C(N)O3)cc1 (centres undefined)	2	-0.71
74	CC(=O)Nc1ccc(C(=O)CSc2nnnn2C(C)C)cc1	1.1	2.7
75	Cc1ccccc1Cn1nc(C)c(NC(=O)c2sc3ccccc3c2Cl)c1C	0.29	0.75
76	CN(C)c1nc(N)nc(CSc2n[nH]c(-c3ccccc3)n2)n1	1	-0.25
77	Cc1cc(C)nc(SCc2ccc(C(=O)N/N=C/c3cccc(O)c3O)cc2)n1	0.66	-0.71
78	Cc1ccc(C(=O)NCc2ccccc2)cc1Br	0.67	-0.11
79	Cc1cc(F)ccc1NC(=S)NC1CCCC1	0.28	-0.32
80	O=C(O)c1c(-c2ccc(Cl)cc2)cn2ccccc12	1	-0.68
81	O=C(CCCn1c(=O)[nH]c2cc(Cl)ccc2c1=O)NCCCN1CCCC1	1.9	-0.22
82	CCOc1cccc(/C=C/c2cc(C(=O)O)c3ccccc3n2)c1OC	0.96	0.8
83	O=C(N/N=C/c1cccc(OC(=O)c2ccccc2Cl)c1)c1cccnc1	1.3	1.8
84	CCCCn1c(N)c(N(CCC(C)C)C(=O)COC(=O)c2ccco2)c(=O)[nH]c1=O	0.59	-0.06
85	CC(=O)Nc1ccc2nc(-c3cccnc3)[nH]c2c1	1.2	-1.6
86	CCOC(=O)C/C(C)=N/NC(=O)c1cccs1	0.11	-1.8
87	Cc1cc(C)nc(/N=C2\NC(=O)CC(C(=O)O)N2c2ccc(Oc3ccccc3)cc2)n1 (centres undefined)	2.4	-1.1
88	COc1ccc(N2CCN(c3oc(COc4ccc(Cl)cc4Cl)nc3C#N)CC2)cc1	0.01	0.01
89	CCOC(=O)CNC(=O)CSc1nc2ncc(Br)cc2[nH]1	0.42	1.6
90	COC(=O)CCC(=O)NN1C(=O)c2ccccc2C1=O	1.1	-1.9

# (cont.)
item	Compound	KCNQ2 pot	KCNQ2 pot baseline
91	O=C(CCN1C(=O)c2ccccc2C1=O)NC(=S)Nc1ccccc1	1.1	-2.3
92	CCCC1CCC(c2ccc(C(N)=O)cc2)CC1 (centres undefined)	2.7	-1.4
93	O=C(CNC(=O)c1ccco1)Nc1cccc(Cl)c1	1.3	-0.01
94	COC(=O)N1CC=CC1(C)C(=O)NCc1cc(F)cc(C(F)(F)F)c1 (centres undefined)	0.49	2.4
95	Cc1ccc(SCc2cc(=O)[nH]c(/N=C(\N)Nc3ccc(C)c(C)c3)n2)cc1	0.77	-0.02
96	CCCCN(C(=O)/C=C/c1ccc(OC)cc1)C1CCS(=O)(=O)C1 (centres undefined)	0.52	-1
97	CCOc1ccc(S(=O)(=O)n2cc(F)c(=O)[nH]c2=O)cc1[N+](=O)[O-]	1.2	0.61
98	CCC(C)(C)NC(=O)C1CCN(S(=O)(=O)c2cccs2)CC1	0.17	-0.47
99	CC(=O)N1CCCc2cc(S(=O)(=O)N3CCC(C)CC3)ccc21	0.87	-1.9
100	O=C(CNC(=O)c1ccccc1)NCC(=O)OCC(=O)c1ccccc1	0.81	-0.84
101	c1ccc(CCc2cn(C[C@H]3CC[C@@H]([C@@H]4CC[C@H](Cn5cc(CCc6ccccc6)nn5)O4)O3)nn2)cc1	1.4	0.07
102	CCOC(=O)N1CCN(C(=O)CNC(=O)c2ccc(Br)cc2)CC1	0.18	-0.15
103	CC(=O)NC(Cc1ccccc1)C(C)=O (centres undefined)	0.29	0.25
104	CCOC(=O)C1CCCN(CC(=O)Nc2cccc(C(C)=O)c2)C1 (centres undefined)	0.01	-0.03
105	CC(=O)c1c(C(C)=O)c(C)n(-c2ccc(N)cc2)c1C	0.57	-0.31
106	O=C1Nc2ccccc2/C1=N/N=C/c1cccc(O)c1	0.7	-0.92
107	CC1Sc2ccc(S(=O)(=O)N3CCC(C(N)=O)CC3)cc2NC1=O (centres undefined)	0.09	2
108	CCOC(=O)c1c(SCc2ccccc2)n[nH]c1N	0.23	0.54
109	O=c1oc2ccccc2n1Cc1cccc(C(F)(F)F)c1	0.01	-0.01
110	CC(C)(C)c1ccc(S(=O)(=O)N2CCC(N3CCCCC3)CC2)cc1	1.7	-0.01
111	CCOC(=O)CN1C(=O)N(c2ccccc2OC)S(=O)(=O)c2ccccc21	1.6	0.65
112	COc1ccc(Nc2nc3ccccc3nc2NS(=O)(=O)c2cccs2)cc1	0.46	-0.65
113	CC(C)(C)OC(=O)N1CCC[C@@H]1C(=O)N1CCC(C(=O)O)CC1	0.3	0.08
114	NC(=O)c1ccc(NC(=O)c2ccc3c(c2)OCO3)cc1	0.03	0.41
115	COc1cc2[nH]c(=S)n(NC(=O)CC(C)C)c(=O)c2cc1OC	2.4	-1.2
116	CN1c2ccsc2/C(=N/Nc2ccc(F)cc2)CS1(=O)=O	0.8	-0.64
117	N#CCC(=O)N1CCn2c1nc1ccccc12	0.84	-1.2
118	C#CCOCCOCCOCCNc1nc(N2CCN(C(=O)Cn3cc(CCO)nn3)CC2)nc(N2CCN(C(=O)[C@H](C(C)C)n3cc(CCO)nn3)CC2)n1	0.42	0.31
119	Cc1ccc(C)c(NC(=O)CSc2nnc(CNC(=O)c3ccco3)n2C)c1	1.1	0.41

# Source: PubChem BioAssay

# Only part of the results is shown; count on the stated rates, not on these rows.
